gsp agonist: qHTS for Agonist of gsp, the Etiologic Mutation Responsible for Fibrous Dysplasia/McCune-Albright Syndrome: qHTS; 340,000 tested, 0.13% active; gsp mutant cells, cAMP HTRF, 30 min; control for the full effect not named in the record; Potency, µM (highest dose often 76.9 µM), for inactives: at the highest dose activation (cAMP increase), actives largely listed as activators; AID 624287, 2012; active = well fitted activation curve with a large enough effect; inconclusive = small, poorly fitted or top-dose-only effect, or another doubt; inactive = no such curve, though single readings can be large or run the other way; cell line not stated here;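 note: phosphodiesterase inhibitor Ro 20-1724 added with compounds to block cAMP breakdown; potency is the fitted concentration of half-maximal effect; nearly all actives have a fitted effect of over 60% in size; about a fifth of the inactives were tested at one dose only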
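Cells in DMEM/10% FBS with G418 were pretreated with compounds in DMSO plus […] (300 uM stock) for 30 min at 37C. cAMP was measured by HTRF (cAMP-d2 plus anti-cAMP antibody-K) after 30 min at room temperature.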
Sfp PPTase inh: qHTS Assay for Inhibitors of Bacillus subtilis Sfp phosphopantetheinyl transferase (PPTase); Biochemical Sfp PPTase activity, qHTS; 4'-phosphopantetheinyl transferase ffp (Bacillus subtilis), Q9F4F7; Potency, µM, inactives show max response, negative = inhibition, usual class: inhibitors; 310,000 tested, 3.5% active; active = well fitted inhibition curve with a large enough effect; inconclusive = small, poorly fitted or top-dose-only effect, or another doubt; inactive = no such curve, though single readings can be large or run the other way;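 note: the enzyme is Sfp with the accession as filed and its product quenches rhodamine fluorescence; potency is the fitted concentration of half-maximal effect; 0% = enzyme reaction without inhibitor and -100% = no enzyme wells; top concentration of the series not given in the record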
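After 15 min at room temperature with compound, 15 nM Sfp received 5 uM rhodamine-CoA plus 12.5 uM BHQ-2-ybbR (50 mM Hepes pH 7.6, 10 mM MgCl2). Rate came from the fluorescence difference over 30 min, ex 525/em 598 nm.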
gsp antagonist: qHTS for Antagonists of gsp, the Etiologic Mutation Responsible for Fibrous Dysplasia/McCune-Albright Syndrome: qHTS. 340,000 tested, 0.4% active. AID 624288, 2012. Potency, µM (titrated, usually from 76.9 µM), without a hit: at the top dose activity change, negative = inhibition, usual class: inhibitors. gsp-mutant cells, cAMP HTRF, 30 min; control for the full effect not named in the record; active = falling curve of any shape with a large fitted effect; inconclusive = falling curve, mostly with a smaller effect; inactive = flat or rising curve; cell line not stated here;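 note: intracellular cAMP measured with PDE inhibitor Ro 20-1724 present during compound exposure; potency is the fitted concentration of half-maximal effect; % is set by controls: 0 for no effect and ±100 for the full control effect; nearly all actives have a fitted effect of over 65% in size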
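Cells in G418 medium, seeded 16-24 h, 37C; buffer exchange to DPBS + 1 mM CaCl2, 0.5 mM MgCl2, 0.05% BSA; cpds in DMSO + […] (300 uM stock), 30 min 37C; HTRF cAMP detection.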
TRPV1 PAM: HTS Assay for Compounds that Act as Potentiators of the Vanilloid Receptor 1 | 320,000 tested, 0.02% active | potentiation, % at 8.33 µM | AID 540277, 2011 | TRPV1-expressing cells, Fluo-8 calcium influx, capsaicin EC20 potentiation; host cell line not named in the record; control for the full effect not named in the record | Transient receptor potential cation channel subfamily V member 1 (Homo sapiens), Q8NER1; active means potentiation above 80%; inconclusive means 30% to 80%; inactive means below 30%; note: 0% is about no effect
Target sequence (Q8NER1 whole entry, looked up): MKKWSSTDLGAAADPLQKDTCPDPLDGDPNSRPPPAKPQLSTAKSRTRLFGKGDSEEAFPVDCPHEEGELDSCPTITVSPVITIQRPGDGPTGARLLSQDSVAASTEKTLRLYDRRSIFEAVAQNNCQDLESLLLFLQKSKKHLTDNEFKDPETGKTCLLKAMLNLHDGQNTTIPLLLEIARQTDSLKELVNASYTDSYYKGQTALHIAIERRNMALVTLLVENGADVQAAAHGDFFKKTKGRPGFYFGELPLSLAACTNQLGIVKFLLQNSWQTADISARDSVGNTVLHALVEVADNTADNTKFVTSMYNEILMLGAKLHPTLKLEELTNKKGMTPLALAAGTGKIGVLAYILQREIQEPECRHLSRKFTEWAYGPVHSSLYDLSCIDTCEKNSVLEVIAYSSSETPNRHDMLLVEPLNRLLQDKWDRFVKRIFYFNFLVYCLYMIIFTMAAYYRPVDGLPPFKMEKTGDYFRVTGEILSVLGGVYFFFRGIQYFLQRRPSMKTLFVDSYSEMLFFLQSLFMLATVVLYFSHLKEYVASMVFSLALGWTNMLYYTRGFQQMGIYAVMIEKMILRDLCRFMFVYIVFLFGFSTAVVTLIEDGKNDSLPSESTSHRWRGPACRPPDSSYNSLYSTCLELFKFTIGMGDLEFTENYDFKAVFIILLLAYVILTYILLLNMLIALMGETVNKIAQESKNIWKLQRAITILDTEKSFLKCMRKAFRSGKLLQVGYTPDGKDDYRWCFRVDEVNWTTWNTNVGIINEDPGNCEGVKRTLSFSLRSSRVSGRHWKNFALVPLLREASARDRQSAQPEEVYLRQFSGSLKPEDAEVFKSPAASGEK
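TRPV1-expressing cells were cultured overnight at 35.5C and loaded with Fluo-8 calcium dye for 40 to 90 min at room temperature. After a 10 s baseline, compound was added and calcium influx was read kinetically for 3 min (ex 480/em 520 nm).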
Menin MLL FP FL: qHTS Assay for Inhibitors Targeting the Menin-MLL Interaction in MLL Related Leukemias: Competition With Fluorescein Labeled MLL-derived Peptide. Fluorescence polarization, fluorescein-MLL peptide displacement from menin. FP activity change, % at 61.4 µM. 290,000 tested, under 10 active. AID 1766, 2009; inconclusive = falling polarisation curve, or a change in total fluorescence; inactive = total fluorescence flat and polarisation flat or rising; no compound was filed as active; the % refers to the polarisation; negative = inhibition;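 note: % of control where 0% means no effect; inhibitors lower the polarisation; unlabelled MLL peptide was the positive control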
ClpP mod: qHTS Assay for Activators of ClpP | purified B. subtilis ClpP, FRET peptide cleavage, 20 min | Potency, µM (series often up to 57.5 µM), for inactives: top-dose activity change, negative = active | 340,000 tested, 1.9% active | ATP-dependent Clp protease proteolytic subunit (Bacillus subtilis (strain 168)), P80244 | AID 651965, 2013; active = well fitted falling curve with a large enough effect; inconclusive = small, poorly fitted or top-dose-only effect; inactive = no such curve, though single readings can be large or run the other way; note: potency is the fitted concentration of half-maximal effect; the source files actives as falling curves though it sought activators and does not explain the sign; nearly all actives have a fitted effect of over 65% in size; many hits overshoot -100%
Target sequence (P80244 whole entry, looked up): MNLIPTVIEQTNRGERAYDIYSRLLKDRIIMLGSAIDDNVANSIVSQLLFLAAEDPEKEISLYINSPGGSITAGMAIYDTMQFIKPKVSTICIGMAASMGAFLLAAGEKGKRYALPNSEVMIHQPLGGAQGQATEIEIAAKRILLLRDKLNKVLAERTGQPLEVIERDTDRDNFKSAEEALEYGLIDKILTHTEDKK
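FRET quenching reversal measured ClpP activation: 10 microg/mL B. subtilis ClpP at pH 8 with the FRET-FV decapeptide, read at 430 nm after 320 nm excitation. The 20-min minus 0-min signal was scaled between DMSO/no-enzyme wells and ADEP (5.8 microM final).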
D2 PAM: Beta-Arrestin HTS for Positive Allosteric Modulators of the Human D2 Dopamine Receptor: Potentiators; D(2) dopamine receptor (Homo sapiens), P14416; DiscoveRx D2 beta-arrestin cells, luminescence, 90 min; 100% = 57 uM dopamine signal; potentiation, % (no concentration beside the values); 360,000 tested, 0.23% active; active = potentiation of 50% or more; inconclusive = 30% to 50%; inactive = 30% or less;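 note: compound concentration not given in the record; tested on top of an EC20 dose of dopamine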
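D2 cells co-treated with compound plus 50 nM dopamine (EC20) for 90 min at 37 deg C to detect potentiation. Beta-arrestin recruitment was read as enzyme-fragment luminescence after 1 h at ambient temperature. Full response was set by 57 uM dopamine.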
The depositor's hits bear a star; u = inconclusive; x = no result given; & = joins results of further samples; [ ] = dose if it differs, or a comment.

canonical_smiles	gsp antagonist	Sfp PPTase inh	D2 PAM	ClpP mod	TRPV1 PAM	gsp agonist	Menin MLL FP FL
Cc1cc(C)c(S(=O)(=O)N(C)CC(=O)NCCCn2ccnc2)c(C)c1	8%	1%	-6	x	-6	-17%[15.4 µM]	0.3
Cc1ccc2c(C)c(C(=O)N3CCN(Cc4ccc5c(c4)OCO5)CC3)oc2c1C	-30%	79µM*	-32	0.2%	22	-48%[inhibitor]	-7.3
CCCc1nc(NCc2ccncc2)c2nnn(Cc3ccccc3F)c2n1	u	3%	29	-0.3%	-3	0%	2.5
CS(=O)(=O)c1ccc(C(=O)N(CCc2ccccc2)Cc2ccccc2)cc1	-7%	0%	-15	1.8%	12	15%	x
COCCN(Cc1ccccc1)C(=O)C1CCN(S(=O)(=O)c2ccc3c(c2)OCCO3)CC1	-5%	x	-5	0.3%	-5	-3%	x
Cc1nn(C)cc1CNC(=O)c1ccc(Br)o1	-20%	11%	7	1.4%	-10	3%	-1.8
C/C(=N/NC(=O)c1cccc(C)c1)c1c(O)cc(C)oc1=O	3%	25%	-7	-13%	-10	18%	-1.6
COC(=O)c1scc(C)c1S(=O)(=O)Nc1ccc(C)cc1	-1%	50µM*	-3	x	-9	-5%[15.4 µM]	3.4
O=S(=O)(O)c1cc(OS(=O)(=O)c2ccccc2)cc2ccccc12	2%	24%	1	-2.2%	u	15%	-1.8
O=C(NC1CCCC1)C1CCN(C(=O)c2cccc(Cl)c2)CC1	2%	14%	0	x	3	-34%	2.5
Cc1cc(S(=O)(=O)n2cnc3ccccc32)c(C)cc1Cl	5%	7%	1	-2.4%	0	-2%	4.4
CCC(C(=O)NC1CCCC1)N(C(=O)Cn1nnc(-c2ccc(C)cc2)n1)C1CCCC1 (stereo unspecified)	-14%	x	-15	0.9%	x	14%	x
Cc1cc(N2CCN(C3CCCCC3)CC2)n2nc(C)nc2n1	6%	1%	-2	0.9%	-7	2%	3.3
C#CCSc1nc2[nH]ncc2c(=O)[nH]1	8%	-8%	-1	0.5%	-6	-14%	4.1
COc1cc(SC)ccc1C(=O)OCC(=O)NC1CC1	5%	27%	-1	x	9	22%[15.4 µM]	-3.1
CCCN(C(=O)C1CC(=O)N(c2ccccc2C(C)CC)C1)C1CCS(=O)(=O)C1 (stereo unspecified)	8%	x	-9	0.7%	8	u	x
C[C@H](NC(=O)c1nc[nH]c1C(=O)N[C@@H](CCCCNC(=O)OC(C)(C)C)C(=O)OC(C)(C)C)C(=O)OCc1ccccc1	1%	31%[activator]	-13	1.0%	9	-28%	-2.2
Cc1ccc(C)c(NS(=O)(=O)c2ccccc2C)c1	0%	2%	-6	1.4%	4	13%[15.4 µM]	x
Cc1ccc(/C=C/C(=O)NC(=S)Nc2ccc(S(=O)(=O)Nc3cc(C)on3)cc2)cc1	35µM*	15%	-5	x	25	0%	0.9
Cn1cccc1CC(=O)N/N=C\c1cccs1	2%	0%	-1	-5.0%	5	7%	-1.2
O=C(O)c1cc(-c2ccc(/C=N/N3C(=O)C4C5C=CC(C6CC56)C4C3=O)o2)ccc1Cl (stereo unspecified)	6%	3%	-4	x	-2	3%[15.4 µM]	-3.9
O=S(=O)(Nc1ccc2c(c1)OCO2)c1ccc(Cl)cc1F	-8%	x	-2	-0.3%	-3	2%	x
COCCN(Cc1cc2cc3c(cc2nc1Cl)OCO3)C(=O)Nc1ccccc1OC	25%	15%	-3	-2.5%	-8	u	-1.8
CCc1cc2c(=O)c(-c3nc4ccccc4[nH]3)coc2c(CN2CCCCC2)c1O	2%	6%	-7	0.0%	-23	46%	-0.5
C/C(N)=C(/C#N)C(=O)CSc1nnc(-c2ccccc2Br)o1	-2%	22%	-12	-8.8%	1	u	8.4
Cc1ccc(C)c(-n2nnnc2SCC(=O)NCCC2=CCCCC2)c1	u	-9%	1	0.1%	-10	0%	-0.3
C=CCNC(=O)c1cc(Cl)ccn1	8%	8%	5	x	8	24%	0.9
CC1=Nc2cc(C(=O)O)ccc2Sc2ccc(C)cc21	-7%	7%	-2	0.5%	3	15%	0.9
CCCC/C(O)=C1\C(=O)CCCC1=NCCc1c(C)[nH]c2ccccc12	-18%	7%	-2	-1.1%	-18	u	3.2
Cc1c(C#N)c2ncn(Cc3ccccc3)c(=O)c2n1-c1ccccc1	7%	8%	-11	-2.1%	-3	0%	-0.9
CC(=O)Nc1ccc(S(=O)(=O)N2CCC(c3nnc(-c4ccc(C)cc4)o3)CC2)cc1	-23%	50µM*	-4	-0.5%&-1.3%	6	4%	-1.0
Oc1ccc(NC(=S)N=Nc2c(O)[nH]c3ccccc23)cc1	-19%	-8%	-17	x	6	-6%[15.4 µM]	-1.5
CC(C)c1ccc(S(=O)(=O)N2CCCCC2)cc1	3%	-5%	0	-1.1%	-25	-17%	-5.0
CCC(=O)Nc1cccc(Br)c1	8%	9%	-21	1.6%	6	-25%	-0.2
Cc1cc(-c2ccccc2)nc(N/N=C/c2ccc([N+](=O)[O-])cc2)n1	-28%	-14%	14	-2.4%	-8	-38%[inhibitor]	1.3
COc1cccc(NC(=O)Nc2ccncc2)c1	4%	-1%	-7	-0.9%	-2	-9%	-1.4
Cn1c(SCC(=O)c2ccc3c(c2)NC(=O)CO3)nc2ccccc21	4%	-5%	-5	x	0	14%	-2.1
CCCCNS(=O)(=O)c1ccc2nc(-c3cccnc3)cc(C(=O)NCCCOCC)c2c1	x	13%	x	-1.9%	5	x	2.9
Cc1ccc(-c2nn(Cc3ccccc3)cc2C(=O)N2CCN(c3ccccn3)CC2)cc1	-17%	x	-13	-16%	-14	-2%	x
CCOC(=O)N/N=C/c1c(C)c(C(=O)c2ccc(F)cc2)n2ccccc12	17%	-7%	3	x	10	-9%[15.4 µM]	1.9
O=C(NCc1ccccc1)C1CCCN(S(=O)(=O)c2cccnc2)C1 (stereo unspecified)	8%	11%	-4	4.5%	-1	6%	3.1
COc1ccc(N2C(=O)CS/C2=C\[N+](=O)[O-])cc1	-4%	-25%	-14	-0.1%	-18	13%	6.5
CC(CCc1ccccc1)NC(=O)COc1ccc(S(=O)(=O)N2CCOCC2)cc1[N+](=O)[O-] (stereo unspecified)	-4%	3%	-22	-1.0%	3	-51%	1.5
COc1ccc(CNC(=O)c2coc(=O)c3ccccc23)cc1	3%	13%	-4	x	3	-17%	4.1
CNC(=O)/C=C/c1cc(C(=O)c2ccc(Cl)cc2Cl)cn1C	-3%	10%	-13	-1.0%	10	20%	-2.3
C=CCNC(=O)c1cccc(OC2CCN(CC(C)(C)C)CC2)c1	-1%	13%	-6	0.2%	-5	-1%	-15
C=CCc1cccc(/C=C/c2cc(=O)c3ccccc3[nH]2)c1O	-13%	5%	-14	-4.5%	-2	-13%	27
O=C(COC(=O)CCS(=O)(=O)c1ccccc1)Nc1ccccc1	0%	x	1	0.6%	6	24%	x
O=C1NCCN1C(=O)c1ccccc1F	14%	4%	-19	0.0%	-6	3%	-1.5
C[C@H]1CN([C@@H](C)CO)C(=O)Cc2cc(NC(=O)Nc3ccccc3)ccc2O[C@H]1CN(C)Cc1ccccc1	-25%	x	-3	-2.6%	x	x	x
CC(C)[C@H](NC(=O)[C@H](CCCN=C(N)N)NC(=O)NC(Cc1ccccc1)C(=O)O)C(=O)NC(C=O)CCCN=C(N)N (stereo partly specified)	-2%	2%	6	-2.8%	3	x	1.3
CCN(CC(=O)Nc1ccc(C(C)=O)cc1)CC(=O)Nc1cccc(OC)c1	10%	11%	-43	0.4%	0	1%[15.4 µM]	-3.5
CCCCOC(=O)CSCC(=O)Nc1cc(C)on1	-4%	3%	-7	1.4%	8	-3%	3.8
O=C(CN(CCc1ccccc1)Cc1ccccc1)Oc1ccccc1P(=O)(O)O	0%	20%	0	x	2	u	13
CCn1c(Cc2ccccc2)nnc1SCC(=O)Nc1ccc(C)cc1	-8%	1%	-16	0.4%	11	-18%	-2.3
CCOC(=O)c1cc(-c2ccc(Cl)s2)nc2c1c(C)nn2C	x	-2%	x	x	-6	x	1.3
COC(=O)c1c(NC(=O)CSc2ncnc3ccccc23)sc(C)c1C	-10%	x	-5	x	x	-5%[15.4 µM]	x
O=C(NC(=S)Nc1cccc2ncccc12)c1ccccc1	-12%	20µM*	-19	-1.6%	1	26%	1.0
COc1ccc(-c2c(C#Cc3ccsc3)c3cc(-c4cccc5[nH]ccc45)ccc3n2C)cc1	2%	x	0	4.0%	15	-6%	x
CSc1ccccc1NC(=O)Nc1cccc(Cl)c1	u	-13%	-11	-0.6%	-20	-3%	3.8

The results go on:
canonical_smiles	gsp antagonist	Sfp PPTase inh	D2 PAM	ClpP mod	TRPV1 PAM	gsp agonist	Menin MLL FP FL
COc1cc(-c2ccccc2)[nH]c(=S)n1	2%	x	-6	1.0%	-3	x	x
O=c1c(-c2ccccc2)c[nH]n1-c1cccc([N+](=O)[O-])c1	-30%	11%	-16	x	9	8%	1.2
COc1ccc2sc(-c3ccccc3OC)c(C#CC(C)(C)O)c2c1	-6%	x	-7	u	-18	x	x
O=C(O)c1ccccc1C(=O)Nc1ccc(Oc2ccccc2)cc1	-1%	9%	-7	x	6	-1%[15.4 µM]	1.0
CCCN1C(=O)SC(CC(=O)Nc2ccc(Br)cc2)C1=O (stereo unspecified)	-12%	9%	-27	1.3%	0	-5%	0.3
CCS(=O)(=O)c1ccc2oc(SCC(=O)NC3CCCC(C)C3C)nc2c1 (stereo unspecified)	-22%	1%	-4	1.2%	-4	0%	3.1
Cc1cccc(NS(=O)(=O)c2cc3c4c(c2)CC(=O)N4CCC3)c1C	-14%	-4%	-1	-4.3%	-11	3%	x

High-throughput results from PubChem BioAssay.
